# High-throughput results deposited in PubChem by several laboratories.
# Calb FLC: C. albicans growth modulation with fluconazole; C. albicans CaCi-2 (fluconazole-resistant clinical isolate) + fluconazole, Alamar Blue growth, 48 h; growth inhibition, % (concentration not given with the values); 300,000 tested, 0.57% active;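 active means most replicates above 75%; inconclusive means exactly half above 75%; inactive means most below 75%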;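 further: all wells also contain fluconazole at 8 µg/ml as a sub-toxic cotreatment; 0% = median of DMSO wells and 100% = median of geldanamycin control wells; wells of about 8 µL received 7.5 nL stock; the first replicate is given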
# T cruzi repl: blocks replication of Trypanosoma cruzi | inhibition, % (no concentration beside the values) | 300,000 tested, 1.4% active | T. cruzi beta-gal in NIH3T3, luminescence, 90 h;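 active means mean inhibition across valid replicates above about 55%, limit read from the data; inconclusive means mean below that limit but half or more replicates reach it; inactive means mean below it, under half of replicates reach it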;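 further: signal also drops with host cell toxicity which is not excluded here; 0% = plate median of DMSO wells and 100% = zero luminescence signal; higher percent means less beta-gal luminescence so fewer parasites; stock transfer was 50 nL into about 50 µL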
# rRNA inh HTS: inhibits bacterial ribosomal RNA function over humanized ribosomes. E. coli WT GFP vs humanized-ribosome RFP mutants, fluorescence, 24 h; stronger effect = lower value; DMSO median 0, no signal -100. GFP signal change (wild-type ribosome), % (test concentration not listed). 350,000 tested, 1.6% active;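 active means significant combined selectivity score with lowered wild-type GFP, culture density cut under 30%, mutant RFP and density less affected; inactive means any of these conditions unmet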; further: one replicate is shown; some compounds called inactive have numbers as strong as hits
# B2AR ag: agonists of human beta-2 adrenergic receptor inducing internalization; P07550; Am2.2-beta2AR cells, FAP receptor internalization, flow cytometry; reference of the scale not given here; response, % (no concentration beside the values); 340,000 tested, 0.43% active;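 active means response above a set limit, near 3 SD of response in nonfluorescent compounds, cut at about 42% in these data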;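 further: stock transfer was 100 nL into about 11 µL; a reference agonist was the positive control; negative values mostly stem from fluorescent compounds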
# Target sequence (P07550 whole entry, looked up): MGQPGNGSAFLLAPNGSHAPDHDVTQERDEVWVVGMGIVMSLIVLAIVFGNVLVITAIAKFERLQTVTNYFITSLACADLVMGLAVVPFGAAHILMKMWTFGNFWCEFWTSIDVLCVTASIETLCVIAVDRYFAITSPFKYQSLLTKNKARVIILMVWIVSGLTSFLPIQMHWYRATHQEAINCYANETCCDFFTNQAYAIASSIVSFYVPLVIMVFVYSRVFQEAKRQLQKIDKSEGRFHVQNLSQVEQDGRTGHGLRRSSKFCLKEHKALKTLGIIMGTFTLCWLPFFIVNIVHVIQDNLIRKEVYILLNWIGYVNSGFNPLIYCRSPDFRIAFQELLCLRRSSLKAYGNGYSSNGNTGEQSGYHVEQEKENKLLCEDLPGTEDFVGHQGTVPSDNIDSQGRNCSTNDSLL
# ALR H2O2 inh: inhibitors of human sulfhydryl oxidase ALR; P55789; purified ALR, DTT oxidation, H2O2 HRP-luminol luminescence; inhibition, % (concentration not given with the values); 290,000 tested, 3.8% active;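 active means mean and each replicate at 75% or more; inconclusive means only one of the two met; inactive means neither met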;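 further: stock transfer was 7.5 nL into about 7.5 µL; 0% = neutral wells and 100% = wells with inactivated enzyme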
# Target sequence (P55789 whole entry, looked up): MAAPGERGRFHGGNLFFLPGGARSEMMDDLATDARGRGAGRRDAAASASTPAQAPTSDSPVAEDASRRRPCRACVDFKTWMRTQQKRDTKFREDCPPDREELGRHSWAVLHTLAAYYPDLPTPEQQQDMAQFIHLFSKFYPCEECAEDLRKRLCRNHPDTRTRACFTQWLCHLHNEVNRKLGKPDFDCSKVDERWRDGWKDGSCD
# LANA-H2B inh: blocks KSHV LANA binding to histone H2A/H2B. Q9QR71. cell-free LANA-H2A/H2B peptide, fluorescence polarization. inhibition, % (no concentration beside the values). 320,000 tested, 0.6% active. AID 2629; in the data active means inhibition mostly above about 10%, no sharp cut-off; inactive means mostly below about 6.7%;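 further: stock transfer was 7.5 nL into about 10 µL; 0% = median of vehicle wells and 100% = median of positive control wells; one replicate is shown; the record names a cut of 25% in any replicate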
# Beta cell apopt: beta cell apoptosis inhibition; AID 435005; protection from apoptosis, % (concentration not given with the values); 300,000 tested, 0.8% active; INS-1E cytokine-induced death, ATP luminescence, 48 h; percent of positive-control rescue, neutral wells zero;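 active means all replicates at 75% or more, or half of them and the mean; inconclusive means half reach 75% but not the mean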;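 further: 0% = cytokine-treated negative control wells and 100% = positive control rescue; higher means more ATP so stronger rescue from cytokine killing; wells of about 40 µL received 100 nL stock; the first replicate is given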
# A1 inh: inhibitors of the anti-apoptotic protein A1, read as caspase activation. MEF A1-2A-BIM cells, Caspase-Glo 3/7 luminescence, 3 h; percent of clofoctol response, vehicle zero. 330,000 tested, 0.066% active. AID 2462. caspase activation, % (no concentration beside the values);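 active means over half of replicate activation scores above 10%, or exactly half above 10 with the replicate mean above 10; inconclusive means replicate mean below 10 yet half the replicates above 10; inactive means over half of replicates below 10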;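 further: wells of about 30 µL received 50 nL stock; many hits fall short of the cut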
# rRNA inh HTS OD600: further read-out of rRNA inh HTS, marked with its call; OD600 change, %; measured here: OD600 growth;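 optical density of the mix in the first replicate; 0 = DMSO median and -100 = no signal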
# rRNA inh HTS RFP: recorded beside rRNA inh HTS, whose call it bears; RFP signal change, %; measured here: RFP humanized mutant strains;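 first replicate; 0 = DMSO median and -100 = no signal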
# Numbers without * were called inactive; ? = inconclusive; nt = no result given; + = active, no number; & = joins results of further samples.
# Value order: Calb FLC	rRNA inh HTS OD600	rRNA inh HTS	LANA-H2B inh	T cruzi repl	Beta cell apopt	B2AR ag	rRNA inh HTS RFP	A1 inh	ALR H2O2 inh
COCc1c(C(=O)OCC(=O)NCc2ccco2)oc2ccccc12
 : nt	0	0	4.0	nt	-4	-5	1.1	0.6	17
CCNC(=S)N(CCCO)Cc1cc2cc3c(cc2[nH]c1=O)OCCO3
 : -1	4	3	0.3	21	-1	12	-1.3	0.3	5
NC(=O)c1ccccc1N/C=C/C(=O)c1ccco1
 : -4	nt	nt	-2.9	-9	3	-9	nt	0.5	6
Cc1nnc(SCc2cc(=O)oc3cc(O)ccc23)n1Cc1ccccc1
 : -9	nt	nt	-4.8	-9	2	-3	nt	0.2	nt
COc1ccc(N(C)S(=O)(=O)c2ccc(C)cc2)c([N+](=O)[O-])c1
 : -21	-20	-20	-2.6	-11	-1	-12	2.8	1.2	0
NC(=O)C[C@@H]1NC(=O)CNC(=O)c2cc([N+](=O)[O-])cc(I)c2NCCC(C(N)=O)NC1=O (some centres undefined)
 : -6	14	11	-2.8	-10	nt	-2	3.8	0.1	-1
CCN(CC)CCN1C2=C(C(=O)CC(C)(C)C2)C(c2cccc(F)c2)C2=C1CC(C)(C)CC2=O
 : -19	0	16	1.3	20	4	5	0.6	0.4	-27
Cn1cnc([N+](=O)[O-])c1Sc1ncn[nH]1
 : -7	12	9	3.3	-3	nt	-1	2.1	0.8	-4
O=C(CCN1CCCCO1)N1CCCC(Nc2cccc(F)c2)C1 (centres undefined)
 : -9	5	4	-0.6	-13	5	5	-1.7	1.0	64
COc1ccc(C(=O)N/N=C/c2cc(Br)ccc2O)cc1OC
 : 2	-60	-38	-0.2	56*	104*	11	-9.3	-0.2	0
Cc1ccc(/C(N)=N/OC(=O)C(C)c2ccc([N+](=O)[O-])cc2)cc1 (centres undefined)
 : -8	-16	-17	17*	7	0	8	-2.1	0.8	26
CCOc1ccc(N2Cc3ncccc3C2=O)cc1
 : -15	nt	nt	-5.9	6	2	-6	nt	0.2	nt
Cc1cc(-c2ccc(C)c(S(=O)(=O)N3CCN(c4ccccn4)CC3)c2)on1
 : -32	-22	-8	-0.7	25	1	-11	4.5	1.4	-3
Cc1ccc(S(=O)(=O)Oc2ccc(/C=C(/NC(=O)c3ccccc3)C(=O)NCCCC(=O)O)cc2)cc1
 : 21	0	4	-3.2	-18	1	4	1.0	-0.5	nt
O=C(CSc1ccc2nnc(-c3ccccn3)n2n1)N1CCN(c2ccccc2)CC1
 : -1	6	-3	3.8	2	1	-2	1.5	-0.8	nt
Cc1ccc(N2C(=O)C3C(C2=O)N2C(c4cccs4)C4C(=O)N(c5ccc(C)cc5)C(=O)C4N2C3c2cccs2)cc1 (centres undefined)
 : -3	nt	nt	2.7	-14	1	2	nt	4.3	-2
COc1ccc(OC)c(NC(=O)Cn2cc(C=O)c3ccccc32)c1
 : -9	3	6	8.1	-5	5	2	-2.0	0.9	nt
COc1cc2cc(C(c3nnnn3C(C)(C)C)N3CCc4ccccc4C3)c(=O)[nH]c2cc1OC (centres undefined)
 : 21	nt	nt	11	5	4	8	nt	0.1	2
Cc1ccc(C(=O)N2CCCC(Nc3ccc(C)c(C)c3)C2)c(=O)[nH]1 (centres undefined)
 : 4	11	0	-4.4	15	-3	-1	-2.6	0.4	0
C[C@@H]1CN([C@H](C)CO)C(=O)c2cc(NC(=O)Nc3ccc4c(c3)OCO4)ccc2O[C@H]1CN(C)Cc1ccncc1
 : nt	3&2	0&5	+	nt	-7	4	-1.3&1.7	-0.1	-2
COC(=O)c1ccccc1C(=O)N1CCCC(C(=O)c2ccc(OC)c(OC)c2)C1 (centres undefined)
 : 0	8	9	-2.2	-13	-2	5	2.9	0.1	-21
Cc1onc(C(=O)Nc2sc3c(c2C(N)=O)CCCC3)c1[N+](=O)[O-]
 : 25	-4	2	0.5	0	-5	-9	12	-0.2	11
CCOC(=O)c1cc(-c2ccccc2)sc1NC(=O)CC
 : -3	nt	nt	-4.6	10	-4	-5	nt	-0.5	nt
CCOc1cccc(N2C(=O)CC(NCc3ccc(S(N)(=O)=O)cc3)C2=O)c1 (centres undefined)
 : 2	nt	nt	-5.6	-1	-5	0	nt	0.3	7
Cn1cccc1C(=O)NC(=O)COC(=O)Cc1coc2ccc3ccccc3c12
 : ?	nt	nt	2.9	-10	1	0	nt	0.2	nt
CCOC(=O)NC(Cc1c[nH]c2ccccc12)C(=O)NCCc1ccc(S(N)(=O)=O)cc1 (centres undefined)
 : 0	3	4	2.6	-12	-6	-4	0.3	-0.6	-10
CN1C(=O)C2(c3ccccc31)c1c(oc3ccccc3c1=O)C(=O)N2CCO (centres undefined)
 : -1	16	19	2.3	-1	nt	-2	0.0	0.3	nt
O=c1[nH]c2ccc(S(=O)(=O)N3CCN(c4ccccc4F)CC3)cc2s1
 : 34	nt	nt	-2.6	-6	-5	-4	nt	3.0	nt
COc1ccc(NC(=O)c2ccc(NC(=O)COC(=O)CC(NC(=O)c3ccccc3Cl)c3ccccc3)cc2)cc1 (centres undefined)
 : -10	nt	nt	nt	1	-1	7	nt	0.6	nt
Cc1c(Cl)cccc1NC(=O)CCN1CCCC(C)C1 (centres undefined)
 : 6	2	8	4.6	-1	-5	4	-0.5	0.8	-4
CCCn1nc(NC(=O)COC)c2cc3cc(C)ccc3nc21
 : 3	-1	-4	-1.7	-7	-2	3	-8.4	-1.3	-18
COc1ccc(NS(=O)(=O)c2cc(NC(=O)c3cccc(OCc4c(C)noc4C)c3)ccc2OC)cc1
 : -3	nt	nt	-2.1	19	14	6	nt	-0.5	-6
O=C(Cc1ccccc1Cl)NNC(=O)Nc1ccccc1
 : -10	nt	nt	2.9	2	-5	1	nt	0.2	5
CCOc1ccc(N(C)C(=O)CCc2nnc3ccc(N4CCCCC4)nn23)cc1
 : 5	-9	-10	0.9	-13	nt	-14	-5.1	-0.3	-2
c1ccc(-c2noc(C34CC5CC(CC(C5)C3)C4)n2)cc1
 : -7	nt	nt	2.3	-5	9	-4	nt	-0.2	-1
CSc1ccccc1OCc1cc(C(=O)N2CCc3c(Cl)cccc3C2)no1
 : 8	-5	-5	-0.5	23	79*	-7	0.5	-0.6	-1
CC(=O)Nn1cnc2c(c1=O)C1(CCCCC1)Cc1ccccc1-2
 : -4	nt	nt	5.2	2	2	0	nt	0.0	-5
COc1ccc([N+](=O)[O-])cc1NS(=O)(=O)c1ccc(C(=O)N2CCCC2)cc1
 : nt	14	24	0.9	nt	-3	-11	-0.8	-0.6	3
CC1CC1C(=O)OCC(=O)Nc1ccc(N=Nc2ccccc2)cc1 (centres undefined)
 : -39	-7.0*	-18*	-6.0	-24	0	0	2.9*	-3.5	nt
COc1ccc(NC(=O)CN2CCC(Cc3ccccc3)CC2)cc1S(=O)(=O)N1CCOCC1
 : 3	nt	nt	1.5	26	nt	3	nt	-0.6	0
Cc1ccc(-n2nnnc2SCC(=O)Nc2sc(C)c(C)c2C#N)cc1C
 : 2	2	11	-2.2	-4	9	10	14	0.6	-4
CC(=O)NC1(C(=O)O)CCCC1
 : 14	1	4	2.9	-10	-5	-4	-5.5	-0.1	1
COc1cccc(C2=NOC(C(=O)Nc3c(C)n(C)n(-c4ccccc4)c3=O)C2)c1 (centres undefined)
 : 2	1	5	-3.1	-7	-5	-8	-1.5	0.1	-8
O=C(Nc1ccc(Cl)cc1)[C@@H]1[C@@H]2C(=O)N(c3ccc(Cl)cc3Cl)C(=O)[C@@H]2[C@H]2C=CC=NN21
 : -12	nt	nt	3.0	-10	0	nt	nt	-0.4	-7
CC(C)c1ccc(NS(=O)(=O)c2ccc3[nH]cc(C(=O)N4CCC(C(N)=O)CC4)c(=O)c3c2)cc1
 : 3	nt	nt	-1.9	5	-1	3	nt	0.5	nt
Cc1cccc(NC(=O)Nc2c(C)n(C)n(-c3ccccc3)c2=O)c1
 : -4	18	7	-4.0	-15	-4	1	-0.5	-0.8	-12
Cc1ccc(S(=O)(=O)NCc2ccccc2)cc1C(=O)N(C)CC(=O)Nc1c(Cl)cccc1Cl
 : 0	-11	-9	-4.0	-10	-4	8	3.7	-0.3	-5
CC(Cl)C(=O)c1c(N)n(C)c(=O)n(C)c1=O (centres undefined)
 : -10	nt	nt	2.8	-7	-8	-2	nt	1.2	-12
O=C(O)CCc1[nH]c2ccccc2c1Sc1ccccc1
 : 41	-49	-35	2.9	-10	-1	14	-8.4	1.0	99*
Cc1cc(C)nc(N2CCC(C(=O)NCCc3ccccc3)CC2)n1
 : -16	nt	nt	2.1	-12	-2	6	nt	2.5	-1
Cc1cc(C)c2nc(SCC#N)cc(C)c2c1
 : -9	nt	nt	2.2	-2	nt	-2	nt	1.6	-11
CCCS(=O)(=O)Nc1c(C(=O)O)[nH]c2ccc(OC)cc12
 : -3	13	13	-1.6	-14	4	0	-1.1	0.6	?
O=C1COc2ccc(C(=O)COC(=O)c3ccccc3[N+](=O)[O-])cc2N1
 : -5	10	9	-3.4	-9	-3	11	-2.0	-5.9	-10
S=C(Nc1ccccc1)N1CCN(C(=S)Nc2ccccc2)CC1
 : -14	30	27	0.8	-44	-5	nt	2.8	0.9	-1
Cc1ccc(C)c2[nH]c(=O)c(CCNC(=O)CC(C)(C)C)cc12
 : 1	10	6	1.3	2	-2	2	-0.5	1.3	-5
CCn1c(SCC(=O)Nc2cc(C)on2)nnc1-c1cccc(C)c1
 : 19	5	5	0.0	-13	0	-1	0.3	0.7	0
O=C(c1ccccc1)N1CCN(C2CCCCC2)CC1
 : 2	nt	nt	-5.5	-3	-4	4	nt	0.5	-9
O=C1c2ccc(-c3ccc4c(c3)C(=O)N(CCCO)C4=O)cc2C(=O)N1CCCO
 : 0	3	6	11	1	-5	-5	-2.0	-0.2	-10
Cc1ccc(NC(=O)c2cncc(Br)c2)c(O)c1
 : 20	-3	-3	-3.5	4	-2	7	0.7	-0.3	24
Cc1noc(C)c1COC(=O)CCCc1c[nH]c2ccccc12
 : -2	nt	nt	-1.0	1	0	1	nt	-0.5	18

# (further entries)
# Value order: Calb FLC	rRNA inh HTS OD600	rRNA inh HTS	LANA-H2B inh	T cruzi repl	Beta cell apopt	B2AR ag	rRNA inh HTS RFP	A1 inh	ALR H2O2 inh
Oc1ccc(C=Nc2ccccc2-c2nc3ccccc3[nH]2)cc1
 : -26	nt	nt	-5.4	12	-6	-7	nt	-1.0	56
CN(C)c1ccc(CN(C(=O)/C=C/c2ccco2)C2CCS(=O)(=O)C2)cc1 (centres undefined)
 : -6	8	18	-4.9	7	-3	-8	0.5	-0.6	86*
Cc1ccsc1CN1CCN(c2ccccn2)CC1
 : -20	nt	nt	-0.7	-20	-2	1	nt	1.7	-2
Cc1c(F)cccc1NC(=O)CSCC(=O)Nc1ccccc1
 : -10	nt	nt	3.2	-10	0	7	nt	0.1	-10
O=S(=O)(O)Oc1c[nH]c2ccccc12
 : 6	nt	nt	-1.0	-9	96*	nt	nt	-1.1	-4

# The list is partial, so the mix of outcomes need not match the whole.
